CapD inh – blocks the Bacillus anthracis CapD enzyme | purified CapD enzyme, fluorescence intensity read-out; hits give low values; some hits fall short of the stated cut | z-score (concentration not given with the values) | 0.23% of 140,000 active;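 active = z-score under -4 in either of two replicates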;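 also: stock transfer was 100 nL into about 40 µL; score is relative to mean and spread of the plate; one replicate is shown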
AID504770 – growth inhibitors of E. coli YBA685 in a screen for V. cholerae RctB (chromosome II replication) inhibitors; AID 504770; 0.27% of 130,000 active; E. coli YBA685 rctB-dependent plasmid, OD600 growth, 3 h; hits give low values; z-score (no concentration beside the values);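 active = z-score under -2 on both plates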;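 also: wells of about 30 µL received 100 nL stock; score is relative to mean and SD of the test wells; the first replicate is given; strong numbers were not always called active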
Active calls of the source: *; x = no result given.

SMILES	CapD inh	AID504770
CCOC(=O)c1cc2c(c(CSc3nc4sc(C(=O)OCC)c(C)c4c(=O)n3Cc3ccco3)c1)OCOC2	-0.07	x
N/C(=N/O)c1cn(-c2ccccc2)nc1-c1ccccc1	0.025	-0.55
FC(F)(F)c1cc(-c2ccc(Cl)cc2)nc2cc(-c3ccccc3)nn12	0.46	x
COC(=O)c1ccc(CO/N=C/C(=O)Nc2cccc(C(F)(F)F)c2)o1	x	-0.15
CCOc1ccc(C(=O)Nc2ccc(-c3nnc4n3CCCCC4)cc2)cc1	1.9	-0.75
COc1cc2nc(C(C)(C)C)oc(=O)c2cc1OC	0.5	-1.2
COc1ccc(S(=O)(=O)N2CCN(c3nc(OC)cc(OC)n3)CC2)cc1	-0.61	x
Cc1cc2c(ccc3nonc32)nn1	0.2	-0.85
CCn1c(SCC(=O)NC2CCCC2)nnc1-c1ccccc1	x	-0.25
CC(C)(O)C(C)(C)CN(Cc1ccccc1)Cc1ccccc1	0.59	x
CNc1cc(Cl)nc(SC)n1	-0.025	0.75
CC(C)N1C(=O)CSC1c1cccs1 (stereo unspecified)	0.23	0.1
CCCCN(CC)C(=O)c1c[nH]c2ccc(S(=O)(=O)N(C)c3ccc(Br)cc3)cc2c1=O	0.32	x
COC(=O)c1c(C)oc(C)c1S(=O)(=O)NC(c1ccccc1)c1ccccc1	-0.17	0.3
NC(=O)c1oc2ccccc2c1NC(=O)c1cc(-c2cccs2)nc2ccccc12	0.41	x
C(=C\C1Nc2ccccc2-c2nnc(SCc3ccccc3)nc2O1)/c1ccco1 (stereo unspecified)	0.45	-0.2
O=C(CSc1nc(-c2ccccc2)cc(C(F)(F)F)n1)NCCN1CCOCC1	x	-0.65
S=c1[nH]c2ccccc2n1-c1ccccc1	x	0.2
CN1CCN(Cc2c(O)ccc3c(=O)c(-c4ccccc4Cl)c(C(F)(F)F)oc23)CC1	0.62	x
Cc1ccc(C2(c3ccc(C)cc3)CC2C(=O)Nc2ccc(I)cc2)cc1 (stereo unspecified)	-0.69	x
N#CCC(=O)Nc1ccc(C(=O)NCc2ccccc2)cc1	x	0.35
O=C(O)CC12CC3CC(CC(C3)C1(F)F)C2	-0.53	0.85
N#Cc1ccccc1NC(=O)c1cc2c(s1)-c1ccccc1SC2	-0.05	-0.05
CC(=O)N1CCN(C(=O)CSc2nc(-c3ccc(F)cc3)cs2)CC1	x	0.75
Cn1cccc1C(=O)NN	x	1.4

The closing two compounds of the part before open the next one.
SMILES	CapD inh	AID504770
CC(=O)N1CCN(C(=O)CSc2nc(-c3ccc(F)cc3)cs2)CC1	x	0.75
Cn1cccc1C(=O)NN	x	1.4
O=C1c2ccccc2C(=O)N1CCN1CC2CC(C1)c1cccc(=O)n1C2 (stereo unspecified)	-0.1	-0.75
COc1ccc(OCCNC(=O)OCCCCCc2ccccc2)cc1	0.15	x
FC(F)Oc1ccc(-c2csc(=Nc3cccnc3)n2C2CC2)cc1	x	-0.3
NC(=O)COc1cc2oc(=O)c3c(c2cc1Cl)CCCC3	21	2
Cn1c(=O)[nH]c(=O)c2c1nc(Br)n2CC(O)COc1ccc(Cl)cc1Cl (stereo unspecified)	0.91	-0.75
CC1(C)CC(=O)C(C(=N)Cc2ccccc2)=C(O)C1	-1.1	-1
COc1ccc(C2C(C(=O)Nc3cccc(C)n3)c3ccccc3C(=O)N2c2ccc(OC)cc2)cc1 (stereo unspecified)	25	x
CCOc1cc(C#N)c(NC(=O)Cn2nnc3ccccc32)cc1OCC	-0.96	1.4
CC1CCc2sc(C(=O)N/N=C/c3ccco3)cc2C1 (stereo unspecified)	x	1.3
N#CC1=C(N)SC(N)=C(C#N)C1	10	-1.4
CCn1c(=NC(=O)CSCC(=O)Nc2nccs2)sc2ccccc21	-0.22	-0.35
O=C(NCc1cccs1)c1ccc(N2CC3CC(C2)c2cccc(=O)n2C3)c(NC(=O)c2cccc(C(F)(F)F)c2)c1 (stereo unspecified)	1	x
O=C(Cn1c2c(c(-c3ccccc3Cl)cc1=O)CCC2)NCC1CCCO1 (stereo unspecified)	42	-0.85
CN(Cc1ccccc1)C(=O)c1cc(-c2ccco2)nc2ccccc12	101	0.2
C#C[C@]1(OC(C)=O)CCC2C3CCC4=CC(=O)CC[C@@H]4C3CC[C@@]21C (stereo partly specified)	-0.18	-0.1
CC(=O)Nc1ccc(S(=O)(=O)Nn2cnnc2)cc1	x	-0.3
O=C(CN1C(=O)C2(OCCO2)c2ccccc21)c1ccccc1	-0.32	x
COc1ccc(OCCSc2nc(C)cc(=O)[nH]2)cc1	x	-0.3
CCCC(C(=O)c1ccccc1)n1cncn1 (stereo unspecified)	0.21	0.25
COc1cc(C(=O)N(C)c2ccccc2)cc(OC)c1OC	0.15	0
COC(=O)CN1C(=N)N(c2nc(N(C)C)nc(N(C)C)n2)CC1=O	-0.15	x
CNC(=O)Nc1ccc(Oc2cncc(Cl)c2)nc1	-0.33	-0.3
O=C(CS(=O)(=O)c1cn(Cc2ccc(Cl)cc2)c2ccccc12)Nc1ccccc1	0.51	0.45
O=C(COC(=O)C1CC2C=CC1C2)c1ccccc1 (stereo unspecified)	-0.29	0.7
CN(C)S(=O)(=O)N1CCN(c2ccccc2)CC1	-0.24	0.45

Single entries from the results shown.
CC1CCc2sc(C(=O)N/N=C/c3ccco3)cc2C1 (stereo unspecified) | AID504770 = 1.3
O=C1c2ccccc2C(=O)N1CCN1CC2CC(C1)c1cccc(=O)n1C2 (stereo unspecified) | AID504770 = -0.75
COc1ccc(OCCSc2nc(C)cc(=O)[nH]2)cc1 | AID504770 = -0.3

Single records, as listed above.
Shown for C#C[C@]1(OC(C)=O)CCC2C3CCC4=CC(=O)CC[C@@H]4C3CC[C@@]21C (stereo partly specified) = CapD inh: -0.18; AID504770: -0.1
Shown for CC1(C)CC(=O)C(C(=N)Cc2ccccc2)=C(O)C1 = CapD inh: -1.1; AID504770: -1

Continuation.
SMILES	CapD inh	AID504770
CN(Cc1cccs1)C(=O)c1cc(Br)c(Br)s1	x	-1.1
CCOC(=O)C1C(=O)C=C(c2cccc(OC)c2)CC1c1ccc(CC)cc1 (stereo unspecified)	3	-0.5
O=C(Nc1ccccc1)N1CCCc2ccccc21	-0.91	-0.65
CS/C(=C(/C#N)S(=O)(=O)c1ccc(Cl)cc1)N1CCSCC1	-1.4	1.5
Cc1nn(-c2ccccc2)c2nc3ccccc3c(N3CCOCC3)c12	1.3	0.5
O=C1C2c3ccccc3CCN2C(=O)CN1CCc1ccccc1 (stereo unspecified)	x	1.4
Cc1ccc(Cl)cc1NC(=O)c1ccc(Cn2cc(Cl)cn2)cc1	-0.73	0.05
COC(=O)c1c(NC(=O)CCN2C(=O)c3ccccc3C2=O)sc2c1C(C(=O)OC)CC2 (stereo unspecified)	-0.24	x
COc1ccccc1CN(C)C(=O)CNC(=O)c1ccc(Br)o1	x	-0.75
O=C(CSC1CCCCC1)Nc1nccs1	-0.25	2
COCCn1c(=O)c(=O)n(CC(C)=O)c2cc(C(F)(F)F)ccc21	0.89	x
COc1cccc(C2C(N3C(=O)c4ccccc4C3=O)C(=O)N2c2ccc(C)c(Cl)c2)c1 (stereo unspecified)	-0.11	x
COc1ccc2ccccc2c1C1N(Cc2ccc(Cl)cc2)CCN1Cc1ccc(Cl)cc1	-0.17	x
Cc1ccc(Oc2ncccc2NS(=O)(=O)c2ccc(-c3ccccn3)s2)c2c1CCC2	-1.6	0.35
Cc1cccc(C(=O)NC(c2n[nH]c(=S)n2C)C(C)C)c1 (stereo unspecified)	x	2.2
COc1cc(/C=C2\C(=O)N(c3ccc(S(N)(=O)=O)cc3)N=C2C)ccc1OCc1ccc(Cl)cc1	-0.24	x
CC(C)(C)SCC(=O)Nc1cc(C(F)(F)F)ccc1Oc1ccc(C#N)cc1	0.44	x
O=C(Nc1ccccc1SCc1cccc(C(F)(F)F)c1)c1ccc(Cl)c(Cl)c1	-0.91	x
CC(C)(C)S(=O)(=O)/C(C#N)=C/N1CCCCC1	-0.38	x
c1ccc(CCn2c3ccccc3c3nnc(SCCN4CCOCC4)nc32)cc1	-0.07	0.15
O=C(NCCCN1CCCCC1)c1ccc2c(c1)sc1nc(-c3ccccc3)cn12	3.6	-0.6
COc1ccc(CCNC(=O)Cc2coc3c(C)c(C)ccc23)cc1OC	0.53	-2.1
Cc1ccc(N2CCN(S(=O)(=O)c3ccc(Cl)cc3Cl)CC2)c(C)c1	-0.25	x
CC(=O)Nc1ccc(NC(=O)COC(=O)C2(c3ccc(Cl)cc3)CCCC2)cc1	-0.14	0.15
CN(C)CC(C)(C)C1OCC2(CO1)COC(C(C)(C)CN(C)C)OC2 (stereo unspecified)	x	-0.5

Reprinted from the part before: 6 compounds, then new ones.
SMILES	CapD inh	AID504770
c1ccc(CCn2c3ccccc3c3nnc(SCCN4CCOCC4)nc32)cc1	-0.07	0.15
O=C(NCCCN1CCCCC1)c1ccc2c(c1)sc1nc(-c3ccccc3)cn12	3.6	-0.6
COc1ccc(CCNC(=O)Cc2coc3c(C)c(C)ccc23)cc1OC	0.53	-2.1
Cc1ccc(N2CCN(S(=O)(=O)c3ccc(Cl)cc3Cl)CC2)c(C)c1	-0.25	x
CC(=O)Nc1ccc(NC(=O)COC(=O)C2(c3ccc(Cl)cc3)CCCC2)cc1	-0.14	0.15
CN(C)CC(C)(C)C1OCC2(CO1)COC(C(C)(C)CN(C)C)OC2 (stereo unspecified)	x	-0.5
CC12CCC(C(=O)N3CCc4ccccc4C3)(OC1=O)C2(C)C (stereo unspecified)	0.26	-0.3
CN1CCC(=NNc2ncnc3sc4c(c23)CCCC4)CC1	x	1.6
Cn1c2ccccc2c2n[nH]c(=O)nc21	-0.05	-0.6
Oc1ccc(Br)cc1C=NCCC1=CCCCC1	-0.21	0.8
CCOC(=O)C1CCN(S(=O)(=O)Cc2ccccc2)C1=O (stereo unspecified)	-0.26	-0.65
COC(=O)c1cc(-c2ccc(OC)c(OC)c2)n[nH]1	0.09	1.8
O=C(c1cc2n(n1)C(C(F)(F)F)CC(c1ccco1)N2)N1CCCCC1 (stereo unspecified)	-0.76	0.15
Cc1cccc(CCNC(=O)Nc2cn(C)c(=O)c3ccccc23)c1	29	-0.5
Cc1ccc2c(c1)c(=O)c1ccccc1n2CC(=O)N1CCN(c2ccccc2F)CC1	1.1	x
COc1ccc(C2(c3ccc(OC)cc3)C=Cc3c(c(C(=O)Nc4cc(Cl)c(OC)cc4OC)cc4ccccc34)O2)cc1	-0.12	x
O=C(Cn1nc(C(=O)O)c2ccccc2c1=O)Nc1ccc(N2CCCCC2)cc1	x	-1.5
Cc1ccc(S(=O)(=O)N2CCCN(C(=O)OC(C)(C)C)CC2)cc1	0.26	0.35
COc1cc2[nH]c(=O)n(CCCC(=O)N3CCc4ccccc4C3)c(=O)c2cc1OC	29	-0.8
Cn1cnnc1SC(C(=O)Nc1cccc(C(F)(F)F)c1)c1ccccc1 (stereo unspecified)	x	-0.55
COc1ccc(OC)c(S(=O)(=O)/N=C2\C=C3N(CCO)CCOC3(O)c3ccccc32)c1 (stereo unspecified)	-1.5	-0.7
Cn1c2ccccc2c2nnc(SCC(=O)Nc3nnc(COc4ccccc4)s3)nc21	0.39	0.75
Cc1cc(I)ccc1NC(=O)C(C(C)C)N1C(=O)c2ccccc2C1=O (stereo unspecified)	-0.16	-0.4
O=C(Nc1ccc(Cl)cc1)N1CCCN(c2ncc(C(F)(F)F)cc2Cl)CC1	0.44	x
COC(=O)c1cc2ccccc2c(=O)s1	-0.3	-1.5
N#Cc1ccccc1COc1ccc(CO)cc1	-0.22	-1.4
O=C(NCCC12CC3CC(CC(C3)C1)C2)C1CCCCC1	-1.2	-0.3
CC(=O)/C(N=Nc1c(F)cccc1F)=C(\C)O	-0.24	x
C(=N\NC1=NCCN1Cc1ccccc1)/c1ccc2c(c1)OCO2	-1.1	0.15
Cc1ccn(C(=O)COc2ccc(Cl)cc2)n1	x	-0.3
CC(=O)C1=NN(c2ccc([N+](=O)[O-])cc2)C2(S1)SC(c1ccc(Br)cc1)(c1ccc(Br)cc1)c1ccccc12 (stereo unspecified)	-0.25	x

The results go on.
SMILES	CapD inh	AID504770
COc1cc(C2Nc3ccc4ccccc4c3C3=C2C(=O)CC(C)(C)C3)ccc1O (stereo unspecified)	86	x
CC(=O)Nc1ccccc1NC(=O)c1ccco1	-1.7	1.8
CC(NCc1ccccc1O)C(=O)O (stereo unspecified)	0.47	0
Cc1cccc(-c2c3c(nc4ncnn24)-c2ccccc2C3=O)c1	x	-0.9
CCCS(=O)(=O)c1c(S(=O)(=O)CCC)c2cc(-c3ccncc3)ccn2c1C(=O)N/N=C/c1cccc(OC)c1	-0.48	x
N#CCCn1cc(C(CC(=O)c2ccccc2)C(=O)O)c2ccccc21 (stereo unspecified)	0.085	-0.2
COc1cccc(OC)c1C(=O)Nc1ccnn1C	-0.4	x
Cc1ccc(/C=C2\CC3C4CC=C5CC(O)CCC5(C)C4CCC3(C)C2O)o1 (stereo unspecified)	x	0.4
COc1ccc(-c2noc(CCCOc3ccc(Cl)cc3Cl)n2)cc1	0.035	x
O=C(O)c1ccc(NC(=O)c2cn(-c3ccccc3)nc2-c2cc3ccccc3o2)cc1	x	-0.25
CN(C)/C=C/C(=O)c1cc(C(C)(C)C)cc(C(C)(C)C)c1O	-0.65	0.3
CCOC(=O)C1C(=O)NC(SCC(=O)Nc2cccc(Cl)c2C)=C(C#N)C1c1ccccc1Cl (stereo unspecified)	-0.43	x
O=C(/C=C/c1ccc(F)cc1Cl)NNC(=O)OCCc1cccc(F)c1	7.8	x
O=C(c1ccccc1)N(Cc1ccco1)C1(C(=O)Nc2ccccc2)CCCCC1	-0.14	0.15
O=C1CC(c2ccc(F)c(F)c2)c2cc(Br)c3ccccc3c2N1 (stereo unspecified)	0.96	x
CCC(=O)Nc1c2c(nn1-c1ccccc1)CSC2	0.12	1

Assay outcomes (PubChem BioAssay)

The order is random (roughly 0.39% active in at least one column).
